Bioassay records (PubChem)
miR-21 FLuc: raises the signal of a miR-21 reporter; Potency, µM (top dose mostly 38.3 µM), for inactives: at the highest dose reporter change, positive = more light; HeLa miR-21 FLuc reporter, luciferase, 48 h; 340,000 tested, under 10 active; AID 2288; active = well fitted rising curve with a large enough effect; inconclusive = small, poorly fitted or top-dose-only effect; inactive = no such curve, though single readings can be large or run the other way;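 note: % of control where 0% means no effect; miR-21 action dims this reporter so a rising signal means less miR-21 action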
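Using DMEM plus 10% FBS, HeLa miR-21-FLuc cells are incubated with test compounds (final up to about 40uM) for 48 hours; firefly luciferase signal is then imaged following reagent-mediated lysis.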
Starred values were filed as active, the others as inactive; u = inconclusive. These rows are one share of the data (hit frequency here may not be typical).

Start of the data: the first 7 entries, to show the layout:
SMILES	miR-21 FLuc
CC(=O)N1CCc2c(sc3c2c(=O)n(Cc2ccccc2)c(=O)n3CC(=O)Nc2ccc(C)c(F)c2)C1	15.3%
Cn1c(C(=O)NCc2ccc(F)cc2)cc2cc(S(=O)(=O)N3CCCCC3)ccc21	23.5%
COc1ccc(C2CC(=O)Nc3cc4c(cc32)OCO4)c(OC)c1 (stereo not drawn)	28.4%
Cc1nc(-c2ccc(S(=O)(=O)NCc3ccc(OC(C)C)cc3)cc2)co1	3.7%
COc1ccc(N(Cc2cccs2)C(=O)Nc2cccc(Cl)c2)cc1	-4.7%
COCCNC(=O)Cn1cc(S(=O)(=O)Cc2ccccc2Cl)c2ccccc21	-6.6%
O=S(=O)(Nc1ccc(C(F)(F)F)cc1)c1ccc2c(c1)OCCO2	-9.7%

The list itself (from the top)
SMILES	miR-21 FLuc
CC(=O)N1CCc2c(sc3c2c(=O)n(Cc2ccccc2)c(=O)n3CC(=O)Nc2ccc(C)c(F)c2)C1	15.3%
Cn1c(C(=O)NCc2ccc(F)cc2)cc2cc(S(=O)(=O)N3CCCCC3)ccc21	23.5%
COc1ccc(C2CC(=O)Nc3cc4c(cc32)OCO4)c(OC)c1 (stereo not drawn)	28.4%
Cc1nc(-c2ccc(S(=O)(=O)NCc3ccc(OC(C)C)cc3)cc2)co1	3.7%
COc1ccc(N(Cc2cccs2)C(=O)Nc2cccc(Cl)c2)cc1	-4.7%
COCCNC(=O)Cn1cc(S(=O)(=O)Cc2ccccc2Cl)c2ccccc21	-6.6%
O=S(=O)(Nc1ccc(C(F)(F)F)cc1)c1ccc2c(c1)OCCO2	-9.7%
Cc1oc2ccc(O)c(CN(C)Cc3ccccc3)c2c1C(=O)Nc1ccccc1	u
COc1ccc(OC)c(CNC(=O)Cc2ccc(NC(=O)N3CCCCc4ccccc43)cc2)c1	8.3%
CCOC(=O)N1CCc2c(sc(NCc3sccc3C)c2C(=O)Nc2cc(Cl)ccc2OC)C1	-6.2%
COc1ccccc1N1CCN(C(=O)c2cc3c(=O)n(Cc4ccco4)ccc3nc2C)CC1	-0.3%
Cc1cccc(OCc2cc(=O)n3c4c(sc3n2)CCCC4)c1C	-4.5%
CCc1c(C)sc2c1CCN(Cc1ccc(F)cc1)C2c1ccccc1 (stereo not drawn)	u
COc1ccc2c(c1)c(=O)c(S(=O)(=O)c1ccc(F)cc1)cn2Cc1ccccc1Cl	-1.5%
CN(C)CCNC(=O)CN1N=C(c2ccccc2)CCC1=O	-3.3%
COc1ccc(C)cc1NC(=O)CSc1nc(=O)n(Cc2ccccn2)c2c1CCC2	11.1%
CC(=O)c1ccc(N2CCN(C(=O)c3cn(C)c(=O)c4c3c3ccccc3n4C)CC2)cc1	1.2%
Oc1c(C(c2ccccc2)N2CCC(O)CC2)sc2nc(-c3ccco3)nn12 (stereo not drawn)	-3.0%
N#Cc1ccccc1NC(=O)CSc1nc(-c2ccccc2)cc(C(F)(F)F)c1C#N	-3.8%
COc1cc(Cl)c(NS(=O)(=O)c2ccc(-c3coc(C)n3)cc2)c(OC)c1	14.4%
Cc1cccc2sc(N3CCN(C(=O)CS(=O)(=O)c4ccc(F)cc4)CC3)nc12	16.6%
CC1=C(C(=O)Nc2ccccc2C)C(c2ccc[nH]2)n2ncnc2N1 (stereo not drawn)	0.3%
Cc1ccc(Nc2nc3ccccc3c3nnc(C)n23)cc1Cl	1.8%
COc1ccc(-c2nc(CN3CCC(C(=O)NCc4ccc(C)cc4)CC3)c(C)o2)cc1OC	12.2%
Cc1nn(-c2ccc(N3CCCCC3)nn2)c(C)c1CCC(=O)NCc1ccc(F)cc1	-12.7%
Fc1ccccc1N1CCN(c2ncnc3onc(-c4cccc(Cl)c4)c23)CC1	12.3%
CCCCCn1c(CCNC(=O)c2cccc(C)c2)nc2ccccc21	u
Cc1cc2c(cc1S(=O)(=O)N1CCC(C(N)=O)CC1)OCC(=O)N2	-2.8%
Cc1ccc(NC(=O)c2ccc(N(Cc3ccccc3)S(C)(=O)=O)cc2)cc1	-0.3%
CCCCN(CCCNC(=O)c1cc(Nc2ccc(OC)cc2OC)nc2ccccc12)Cc1ccccc1	u
Nc1nc(N)c(S(=O)(=O)c2ccccc2)c(Nc2ccc(F)cc2)n1	2.9%
CC(C)C(NS(=O)(=O)c1ccc2c(c1)oc(=O)n2C)C(=O)N1CCN(c2cccc(Cl)c2)CC1 (stereo not drawn)	-3.5%
COc1ccc(Cn2ccc3nc(C)c(C(=O)N4CCN(c5ccccc5)CC4)cc3c2=O)cc1	3.7%
COc1ccc(C(=O)c2cn(Cc3cccc(C)c3)c3cc4c(cc3c2=O)OCCO4)cc1OC	2.0%
Cc1ccc(C)c(Cn2c(=O)n(CCC(=O)NCc3ccc4c(c3)OCO4)c(=O)c3sccc32)c1	-0.5%
COc1ccc(C)cc1NC(=O)Cn1c(=O)ccc2cc(S(=O)(=O)N3CCC(C)CC3)ccc21	8.7%
Cc1ccc(C(=O)Nc2ccc3c(c2)n(C)c(=O)c(=O)n3C)cc1	-8.3%
CCOc1ccc(C(=O)N2CCc3cc(OC)c(OC)cc3C2COc2ccc3c(C)cc(=O)oc3c2)cc1OCC (stereo not drawn)	-20.3%
CCCN1C(C(=O)c2ccccc2)=C(OC(=O)c2ccc(F)cc2)c2ccccc2S1(=O)=O	u
COC(=O)c1scc(-c2ccc(C)cc2)c1S(=O)(=O)Nc1ccc(F)cc1F	6.9%

Retrieved by structure from the list above (2):
SMILES	miR-21 FLuc
Nc1nc(N)c(S(=O)(=O)c2ccccc2)c(Nc2ccc(F)cc2)n1	2.9%
CC(C)C(NS(=O)(=O)c1ccc2c(c1)oc(=O)n2C)C(=O)N1CCN(c2cccc(Cl)c2)CC1 (stereo not drawn)	-3.5%

More structures.
SMILES	miR-21 FLuc
Nc1c(-c2nc(-c3cccs3)no2)nnn1-c1ccccc1Cl	-51.0%
COC(=O)c1ccccc1NC(=O)CCn1c(=O)c2cccn2c2cccnc21	-1.1%
Cc1ccc(Cl)cc1NC(=O)Nc1cn(CC(C)C)c(=O)c2ccccc12	-5.8%
Cc1cccc(C)c1NC(=O)Cn1cc(C(=O)C2CC2)c2ccccc21	2.4%
COc1ccc(NC(=O)CSc2cc(-c3ccccc3)nc(C)n2)cc1	-2.0%
CC(C)c1nc2n(n1)C1(CCCCC1)[C@@H]1CCCC[C@@H]1N2	-10.0%
CCc1ccccc1NC(=O)Cn1c(SCc2ccc(F)cc2)nc2ccncc21	-6.7%
CC(C)(C)c1ccc(S(=O)(=O)N2CCN(C(=O)c3cc(-c4ccc(Br)cc4)n[nH]3)CC2)cc1	-7.3%
O=C(NC1CC(=O)N(c2ccc(Cl)cc2)C1)C1CCCC1 (stereo not drawn)	1.9%
COCCNC(=O)c1ccc2c(c1)N(Cc1cc(C)ccc1C)C(=O)c1ccccc1S2=O (stereo not drawn)	-1.1%
Cc1cc(NC(=O)n2ncc3c(C)cccc32)ccc1Br	-0.4%
CC(C)OCCCNC(=O)CCCn1c(=O)[nH]c2ccsc2c1=O	8.4%
CCOc1ccccc1NC(=O)NC(CC)c1c(-n2cccc2)sc2c1CCN(C)C2 (stereo not drawn)	-0.9%
CS(=O)(=O)Nc1ccccc1C(=O)OCc1cc(=O)n2nc(C3CCCCC3)sc2n1	-15.6%
O=C(NCCOCCn1c(=O)oc2ccccc21)Nc1ccc(F)cc1	14.1%
Oc1cccc(C(Nc2ccccn2)c2ccc3cccnc3c2O)c1Cl (stereo not drawn)	10.4%
COc1ccccc1NC(=O)c1sc(-c2ccc(Cl)cc2)cc1N	-38.0%
CCCCN(C)S(=O)(=O)c1cc(-c2nnc3c4ccccc4c(C)nn23)ccc1C	-11.8%
CCOc1ccc(CNC(=O)C2CCCN(S(=O)(=O)N(C)c3ccc(F)cc3)C2)cc1OC (stereo not drawn)	u
COc1ccc(-c2nc3c4cnn(-c5ccccc5F)c4ncn3n2)cc1	-31.7%
Cc1ccccc1CNC(=O)Cn1ncn2nc(-c3cccs3)cc2c1=O	-9.9%
COc1ccc(F)cc1S(=O)(=O)Nc1cccc(-c2ccc(N3CCC(C)CC3)nn2)c1	27.8%
COc1ccc(-c2nc(C(N)=O)c3c(n2)n(-c2ccccc2OC)c(=O)n3C)c(OC)c1	-14.1%
CCC(Cn1nnc2ccccc2c1=O)NC(=O)Nc1cc(C)cc(C)c1 (stereo not drawn)	7.1%
Cc1ccc(-c2nnc(Nc3ccc(S(N)(=O)=O)cc3)c3ccccc23)cc1S(=O)(=O)N1CCCCC1	-6.1%
O=S(=O)(NCCS(=O)(=O)N1CCN(c2ccccc2)CC1)c1ccc(Cl)cc1	-4.1%
CCN1CCN(C(=O)Cn2ncc3c4ccccc4n(Cc4c(C)cc(C)cc4C)c3c2=O)CC1	17.1%
CCc1ccc(N=C2NC(=O)CC(C(=O)Nc3ccc(OC)cc3)S2)cc1 (stereo not drawn)	-20.2%
COc1ccc(C2(CNC(=O)C(=O)Nc3cccc(C(F)(F)F)c3)CCCC2)cc1OC	2.6%
Cc1ccc(CN2C(=O)C(O)(c3c(C)[nH]c4ccccc34)c3ccccc32)cc1 (stereo not drawn)	u
O=C(Nc1nc2c(F)cccc2s1)c1ccc(S(=O)(=O)N2CCCc3ccccc32)cc1	8.3%
O=S(=O)(NCCc1nnc2ccc(SCc3c(F)cccc3Cl)nn12)c1ccccc1	4.1%
COCCN1C(=O)c2[nH]nc(-c3c(C)cc(C)cc3O)c2C1c1cccc(O)c1 (stereo not drawn)	16.6%
CCOc1ccc(CCNC(c2cccc(Cl)c2)c2nnc(-c3ccccc3)o2)cc1OCC (stereo not drawn)	23.2%
O=S(=O)(Nc1ccc(-c2ccc(N3CCCC3)nn2)cc1)c1ccc(Br)cc1	7.4%
COc1ccc(N2CCN(Cc3nc(-c4ccc(C)cc4)no3)CC2)cc1	0.6%
Cc1ccc(CNc2nc3ccc(C)cc3n3nnnc23)cc1	2.0%
Cc1ccc(S(=O)(=O)N(CC(=O)NCCc2ccc(Cl)cc2)c2ccccc2C)cc1	u
CCOc1cc(CNC(=O)c2cc(-c3ccccc3)n[nH]2)cc(OCC)c1OCC	-3.0%
Cc1ccc2c(CC(=O)Nc3cc(C(F)(F)F)ccc3Cl)coc2c1C	4.2%
COCc1c(Br)c(C)nc2sc3c(=O)n(-c4cccc(Br)c4)nnc3c12	5.1%
O=C(Nc1ccc2c(c1)OCO2)c1cc(-c2cccc(Cl)c2)on1	-16.4%
COc1ccc(-c2cc3nc(C)c(CCC(=O)Nc4ccc(F)cc4F)c(C)n3n2)c(OC)c1	-2.9%
Cc1ccc(NC(=O)Cn2nc(-c3ccc(Cl)cc3)c3ccccc3c2=O)cc1	-1.3%
O=C(CSc1c2c(nc3cc(Cl)ccc13)CCCC2)N1CCN(c2ccccc2F)CC1	15.3%
COc1ccc(Cl)cc1NC(=O)C1CCN(S(=O)(=O)c2ccc3c(c2)CC(C)N3C(C)=O)CC1 (stereo not drawn)	20.7%
Cc1ccc(N2CCN(C(=O)c3c(C)oc4ncn(CC(C)C)c(=O)c34)CC2)c(C)c1	-2.9%
CCOC(=O)c1c(C)[nH]c(C)c1S(=O)(=O)N1CCC(C(=O)N2CCN(c3cccc(C)c3)C(C)C2)CC1 (stereo not drawn)	19.0%
CCc1c(C)nc2nncn2c1Nc1ccc(Cl)cc1	14.7%
CCOc1cc2c(cc1OCC)C(CC(=O)OC)N(C(=O)Nc1cc(C)cc(C)c1)CC2 (stereo not drawn)	1.5%
The listing continues.
SMILES	miR-21 FLuc
COc1ccc(C(=O)Nc2nnc(S(=O)(=O)N3CCN(c4ccc(C)cc4)CC3)s2)cc1	-0.7%
Cc1noc(-c2ccc(N3CCCCC3)c([N+](=O)[O-])c2)n1	12.3%
COc1ccc(CC(=O)Nc2nc3c(s2)CC(C(C)(C)C)CC3)cc1 (stereo not drawn)	-17.8%
Cn1c(=O)c2sccc2n2c(CCC(=O)NCc3ccc(F)cc3)nnc12	0.4%
COc1ccc2cc(CNc3ccccc3)c(=O)n(CC(=O)Nc3ccc(C(C)=O)cc3)c2c1	4.8%
COc1ccc(S(=O)(=O)NCCc2csc3nc(-c4ccc(OC)c(OC)c4)nn23)cc1C	-12.2%
CCc1cccc(-n2nnc(-c3nsc(NC(=O)c4cccc(OC)c4)n3)c2C)c1	4.0%
Cc1ccc(CN2CCCn3nc(C(=O)NCc4cc(C)ccc4C)cc3C2=O)cc1	11.5%
Cc1ccc(CCNc2ncnc3onc(-c4ccc(Cl)cc4)c23)cc1	-13.7%
CCOC(=O)c1c(C)[nH]c(CCC(=O)NCc2ccc(OC)cc2OC)c1C	-0.8%
CCOC(=O)C1=C(C)NC(=O)NC1c1cn(-c2ccccc2)nc1-c1ccc(OCC)cc1 (stereo not drawn)	16.4%
Cc1cccc(NC(=O)Cn2cc(S(=O)(=O)c3ccc(F)cc3)c(=O)c3cc4c(cc32)OCO4)c1	2.7%
CCn1cc(C(=O)N2CCN(c3cc(C)ccc3C)CC2)c(=O)c2cc(S(=O)(=O)N3CCOCC3)ccc21	-9.1%
COc1ccc(Nc2c(-c3ccsc3)nc3nc(C)cc(C)n23)cc1	-7.0%
CCN(CC)S(=O)(=O)c1ccc2c(c1)N(CC(=O)NCC(C)c1ccccc1)C(=O)CO2 (stereo not drawn)	-2.3%
COc1ccc(CNC(=O)C(C(C)C)N2Cc3ccccc3C2=O)cc1 (stereo not drawn)	21.3%
COc1nc(Oc2ccc(=O)n(-c3ccccc3)n2)nc(N(C)C)n1	-6.7%
CCCCOc1ccc(C2c3c(oc4ccc(C)cc4c3=O)C(=O)N2CCCN(C)C)cc1OCC (stereo not drawn)	-4.6%
COC(=O)c1ccccc1NC(=O)N1CCC(N2CCN(Cc3ccc(F)cc3)C(=O)C2=O)CC1	-4.3%
CCOC(=O)c1c(NC(=O)CS(=O)(=O)c2ccc(C)cc2)sc2c1CCCCC2	-5.1%
CC(=O)c1ccc(NC(=O)c2cn(C)c(=O)c3ccccc23)cc1	4.1%
CC(C)NC(=O)c1ccc(NC(=O)N2CCCCc3ccccc32)cc1	0.2%
CCCc1nn2c(=O)cc(COC(=O)c3ccccc3NC(=O)COc3ccccc3)nc2s1	-2.3%
